Sfp PPTase inh: inhibitors of Bacillus subtilis Sfp phosphopantetheinyl transferase | Potency, µM, inactives show max response, negative = inhibition, most hits filed as inhibitors | 3.5% of 310,000 active | Biochemical Sfp PPTase activity, qHTS | Q9F4F7 | AID 1490; active means well fitted inhibition curve with a large enough effect; inconclusive means small, poorly fitted or top-dose-only effect, or another doubt; inactive means no such curve, though single readings can be large or run the other way;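 further: the enzyme is Sfp with the accession as filed and its product quenches rhodamine fluorescence; potency means the concentration at half of the fitted maximal effect; 0% = enzyme reaction without inhibitor and -100% = no enzyme wells; top concentration of the series not given in the record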
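Buffer: 50 mM Hepes-Na pH 7.6, 10 mM MgCl2, 0.01% Nonidet P-40, 0.01% BSA. Enzyme 15 nM, pre-exposed to compound 15 min; substrates then added and fluorescence change tracked over 30 min.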
TRPV1 potentiator: enhances activation of the human vanilloid receptor TRPV1; TRPV1-expressing cells, Fluo-8 calcium influx, capsaicin EC20 potentiation; host cell line not named in the record; control for the full effect not named in the record; potentiation, % at 8.33 µM; Q8NER1; 0.02% of 320,000 active; active means potentiation above 80%; inconclusive means 30% to 80%; inactive means below 30%; further: 0% is about no effect
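TRPV1-expressing cells were cultured overnight at 35.5C and loaded with Fluo-8 calcium dye for 40 to 90 min at room temperature. After a 10 s baseline, compound was added and calcium influx was read kinetically for 3 min (ex 480/em 520 nm).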
PINK1 expr mod: modulators of PINK1 expression | Potency, µM (doses to about 76.6 µM), for the others: at the top dose activation (PINK1 increase), hits mostly activators | PINK1 immunofluorescence, high-content cytometry, 24 h | 0.2% of 410,000 active | AID 624263; active = well fitted activation curve with a large enough effect; inconclusive = small, poorly fitted or top-dose-only effect; inactive = flat fitted curve, though single readings scatter; cell line not stated here;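 further: potency means the concentration at half of the fitted maximal effect; % of control where 0% means no effect; nearly all actives have a fitted effect of over 65% in size; a mitochondrial uncoupler was the plate control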
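Decision-based qHTS: stable cells, 24 h exposure to five compound concentrations, CCCP as control. Fixed cells stained for PINK1 plus nuclear, mitochondrial and cell markers, cytometer read.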
D2 potentiator: human D2 receptor positive allosteric modulation | P14416 | 0.23% of 360,000 active | potentiation, % (no concentration beside the values) | DiscoveRx D2 beta-arrestin cells, luminescence, 90 min; 100% = 57 uM dopamine signal; active = potentiation of 50% or more; inconclusive = 30% to 50%; inactive = 30% or less;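 further: compound concentration not given in the record; tested on top of an EC20 dose of dopamine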
Target sequence (P14416 whole entry, looked up): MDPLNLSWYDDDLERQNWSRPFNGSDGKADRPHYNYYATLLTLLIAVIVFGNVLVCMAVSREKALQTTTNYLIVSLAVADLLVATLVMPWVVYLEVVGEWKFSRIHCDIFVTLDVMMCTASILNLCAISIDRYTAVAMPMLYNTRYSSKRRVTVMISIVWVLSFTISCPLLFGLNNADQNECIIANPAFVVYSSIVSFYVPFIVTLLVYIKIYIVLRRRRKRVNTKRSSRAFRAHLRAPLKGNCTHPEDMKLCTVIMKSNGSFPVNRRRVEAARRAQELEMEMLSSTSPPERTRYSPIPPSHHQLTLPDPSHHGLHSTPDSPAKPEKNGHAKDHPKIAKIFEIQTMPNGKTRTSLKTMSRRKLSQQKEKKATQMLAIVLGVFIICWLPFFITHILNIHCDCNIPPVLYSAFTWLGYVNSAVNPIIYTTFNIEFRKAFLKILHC
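D2 cells co-treated with compound plus 50 nM dopamine (EC20) for 90 min at 37 deg C to detect potentiation. Beta-arrestin recruitment was read as enzyme-fragment luminescence after 1 h at ambient temperature. Full response was set by 57 uM dopamine.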
Six1-Eya2 inh: inhibitors of human Six1/Eya2 interaction; Q15475+O00167; AlphaScreen GST-Six1/His-Eya2 binding, biochemical; hits give low values; control for the full effect not named in the record; activity change, % (test concentration not listed); 0.56% of 360,000 active; in the data active = activity change below about -65%; inconclusive = about -30% to -65%; inactive = above about -30%; further: on the % scale 0 is the no-effect control and ±100 the full control effect; compound concentration not given in the record
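AlphaScreen with GST-Six1 and His-Eya2 (5X mix: 250 nM and 500 nM), glutathione donor and nickel acceptor beads; buffer 50 mM Tris pH 8.0, 300 mM NaCl, 1 mM TCEP; 1 h at 37 C in the dark.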
CtBP-E1A inh: inhibitors of CtBP/E1A interaction. AlphaScreen GST-E1A/His-CtBP binding, 1536-well; hits give low values; control for the full effect not named in the record. activity change, % (test concentration not listed). 0.49% of 340,000 active; in the data active means activity change below about -65%; inconclusive means about -30% to -65%; inactive means above about -30%; further: on the % scale 0 is the no-effect control and ±100 the full control effect; compound concentration not given in the record
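In 5 uL wells, 23 nL compound meets equimolar GST-E1A and His-CtBP (5X stock 125 nM each) for 2 h, 37 °C. Beads (5X, 50 ug/mL) then 1 h, 37 °C, dark.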
D2 ag: agonists of human D2 dopamine receptor (beta-arrestin) | P14416 | activation, % (concentration not given with the values) | DiscoveRx PathHunter D2 beta-arrestin, luminescence, 90 min; 100% = 57 uM dopamine signal | 0.084% of 360,000 active; in the data active = activation above about 40%; inconclusive = about 15% to 40%; inactive = below about 15%; further: compound concentration not given in the record; the text of the record calls up to 30% inactive
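DiscoveRx PathHunter D2 beta-arrestin cells (2,100/well) attached overnight, then compound-stimulated 90 min at 37 C in HBSS/10 mM HEPES/0.1% Tween-20 buffer; beta-galactosidase complementation read by luminescence after 1 h at ambient temperature. Dopamine 57 uM final (EC100) as control.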
* = called active by the depositor; ? = inconclusive; nt = not tested or not shown; & = joins results of further samples; [ ] = dose if it differs, or a comment.

SMILES	Sfp PPTase inh	TRPV1 potentiator	PINK1 expr mod	D2 potentiator	Six1-Eya2 inh	CtBP-E1A inh	D2 ag
O=C(NNC(=O)c1csc(N2CCOCC2)n1)c1cccnc1	nt	-4.0	-1.8%	-11.7	1.8	6.0	0.5
CN(C)CCCN=C(NO)c1ccc(Cl)cc1Cl	25.2%	-4.8	1.8%	-0.9	-16.4	10.4	-4.3
Cc1cccc(S(=O)(=O)N2CCn3cccc3C2C)c1 (stereo not drawn)	nt	4.4	0.6%	-20.8	-13.7	8.6	-2.7
O=C(CCNS(=O)(=O)c1ccc(Br)cc1)Nc1cccc(F)c1	13.8%	14.3	8.6%	-7.8	10.6	-10.7	-0.3
C=CCN(C(=O)CCC(=O)Nc1cc(C)on1)C(C(=O)NC1CCCC1)c1ccc(CC)cc1 (stereo not drawn)	2.2%	-0.9	2.3%	-8.8	1.1	5.3	-4.7
Cc1ccccc1OCc1nnc(SCC(=O)N2CCc3ccccc32)n1C	-3.3%	-4.7	6.6%	-9.8	2.8	5.0	-1.1
COc1ccccc1NC(C#N)c1ccccc1OCc1ccccc1 (stereo not drawn)	1.0%	-3.0	20.7%	-18.6	32.4	0.0	-5.3
CCN(CC)CCN=c1c(C)nc(C#N)c(N)n1O	nt	nt	-0.1%	-7.4	0.8	3.2	-5.1
C=C1C(=O)[C@]23C[C@H]1CCC2[C@@]1(C)C(C[C@@H]3O)[C@](C)(C(=O)OC)CC[C@@H]1OC(C)=O (stereo partly drawn)	nt	nt	-0.3%	-28.7	15.1	-2.2	-12.5
N/C(=N\OC(=O)c1ccc(F)cc1)c1nonc1N	24.9%	-10.2	6.0%	12.3	28.4	0.0	3.9
COc1ccc(S(=O)(=O)N2CCCC2C(=O)NCC(=O)Nc2cccc(Cl)c2C)cc1 (stereo not drawn)	7.8%	0.0	1.3%	-10.1	-8.1	9.1	4.9
O=C(Cc1ccccc1)Nc1ccc(NC(=O)C2CCCCC2)nc1	-1.1%	1.2	2.1%	-9.8	-1.5	1.4	-2.4

Grouped by structure, those above containing a cyano group
SMILES	Sfp PPTase inh	TRPV1 potentiator	PINK1 expr mod	D2 potentiator	Six1-Eya2 inh	CtBP-E1A inh	D2 ag
COc1ccccc1NC(C#N)c1ccccc1OCc1ccccc1 (stereo not drawn)	1.0%	-3.0	20.7%	-18.6	32.4	0.0	-5.3
CCN(CC)CCN=c1c(C)nc(C#N)c(N)n1O	nt	nt	-0.1%	-7.4	0.8	3.2	-5.1

Additional compounds
SMILES	Sfp PPTase inh	TRPV1 potentiator	PINK1 expr mod	D2 potentiator	Six1-Eya2 inh	CtBP-E1A inh	D2 ag
CC(=O)Nc1ccc(C(=O)OCC(=O)Nc2ccccc2F)cc1	5.2%	6.8	0.2%	-1.6	8.5	12.7	-1.6
COc1cccc(-c2nn(-c3ccccc3)cc2/C=C(\C#N)C(=O)NCCCn2ccnc2)c1	-0.6%	-9.9	-1.0%	2.5	-17.5	-22.9	-4.1
CC(C)C[C@@]12C(=O)N(c3cccc(Br)c3)C(=O)N1[C@H](c1ccc(Cl)cc1)[C@@H]1C(=O)N(C3CCCCC3)C(=O)[C@@H]12	nt	?	2.1%	-6.6	0.5	4.3	-1.0
COc1ccc(-c2nnc(SCc3ccccc3F)o2)cc1	-19.2%	-4.8	1.6%	-7.8	21.9	24.8	-1.8
Cc1cccc(N2CCN(CC(=O)NCc3ccc(Cl)cc3)CC2)c1C	-8.5%	-4.0	0.1%	-10.1	-3.1	-0.1	-3.1
CNS(=O)(=O)c1cccc(C(=O)OCC(=O)N2CCN(C(=O)c3ccco3)CC2)c1	nt	nt	-0.6%	3.4	5.0	-12.3	-1.4
O=C(c1ccc(Br)cc1)N1CCN(S(=O)(=O)c2ccccc2)CC1	2.2%	-15.3	-0.8%	4.3	-0.9	3.7	-1.9
CN(C)S(=O)(=O)c1cccc(NC(=O)CN(CCO)CC(=O)Nc2cccc(S(=O)(=O)N(C)C)c2)c1	-21.4%	2.3	-1.4%	-8.5	-2.5	-4.9	3.7
O=C(Cc1ccccc1[N+](=O)[O-])NCCSCc1c(F)cccc1Cl	-0.8%	-19.2	-0.3%	-21.2	-6.5	-0.2	-4.0
N#Cc1nc(-c2ccc(OCc3ccccc3)cc2)oc1N1CCC(C(N)=O)CC1	-19.5%	-7.5	-0.2%&0.1%	-11.8	6.6	-8.0	-1.3
NNC(=O)CCN1CCN(C(c2ccccc2)c2ccccc2)CC1	16.1%	-22.4	4.6%	-15.0	-11.9	3.5	-2.3
COc1ccc(Cc2nnc(NC(=O)Nc3ccccc3F)s2)cc1OC	-27.5%	7.5	5.7%	1.1	3.2	nt	-0.8

Full records, quoted from the list. Order of screens: Sfp PPTase inh	TRPV1 potentiator	PINK1 expr mod	D2 potentiator	Six1-Eya2 inh	CtBP-E1A inh	D2 ag
Listed for O=C(c1ccc(Br)cc1)N1CCN(S(=O)(=O)c2ccccc2)CC1 : 2.2%	-15.3	-0.8%	4.3	-0.9	3.7	-1.9
Listed for CC(C)C[C@@]12C(=O)N(c3cccc(Br)c3)C(=O)N1[C@H](c1ccc(Cl)cc1)[C@@H]1C(=O)N(C3CCCCC3)C(=O)[C@@H]12 : nt	?	2.1%	-6.6	0.5	4.3	-1.0

Returning to the listing; the 3 compounds before the break are reprinted first.
SMILES	Sfp PPTase inh	TRPV1 potentiator	PINK1 expr mod	D2 potentiator	Six1-Eya2 inh	CtBP-E1A inh	D2 ag
N#Cc1nc(-c2ccc(OCc3ccccc3)cc2)oc1N1CCC(C(N)=O)CC1	-19.5%	-7.5	-0.2%&0.1%	-11.8	6.6	-8.0	-1.3
NNC(=O)CCN1CCN(C(c2ccccc2)c2ccccc2)CC1	16.1%	-22.4	4.6%	-15.0	-11.9	3.5	-2.3
COc1ccc(Cc2nnc(NC(=O)Nc3ccccc3F)s2)cc1OC	-27.5%	7.5	5.7%	1.1	3.2	nt	-0.8
CCCCCC(=O)Nc1cc(S(=O)(=O)N2CCOCC2)ccc1Oc1ccc(OCC)cc1	nt	-4.0	10.8%	14.0	-3.0	3.0	-5.7
COc1ccccc1NC(=O)NNC(=O)c1ccc(-c2ccccc2)cc1	1.1%	12.6	-1.4%	-8.5	-1.1	1.2	-3.0
O=C(CSc1nnnn1-c1cccc(C(=O)O)c1)NC(c1ccccc1)c1ccccc1	20.0%	0.1	1.3%	3.3	-2.3	-3.5	-1.9
CC(NC(=O)c1cc(COc2c(F)cccc2F)on1)c1cnn(-c2ccccc2)c1 (stereo not drawn)	18.4%	1.4	-0.9%	-6.6	-2.7	nt	-2.6
Cc1ccc(CSc2nc3c(c(SCC(=O)O)n2)CCCC3)cc1	13.5%	nt	5.4%	4.2	-1.8	0.2	-2.4
N#Cc1nc(N2CCCC2)nc(N2CCCC2)n1	13.6%	4.5	0.8%&0.5%	1.3	2.4	2.1	-2.7
Cc1cc(C)n(-c2ccc3cccc(NS(C)(=O)=O)c3n2)n1	-6.4%	5.7	2.4%	10.1	-1.0	-0.5	1.7
CCc1ccc(/C=N/NC(=O)c2ccc(OC3CCCC3)cc2)s1	5.6%	-14.6	2.4%	-3.1	-2.7	-1.7	-1.9
CCn1nc(NS(=O)(=O)c2ccc(NC(C)=O)cc2)c2cc3cccc(C)c3nc21	30.5%[activator]	4.5	2.5%	-11.8	-20.7	nt	-0.2
C=CCn1c(Br)nc2c1c(=O)[nH]c(=O)n2C	13.3%	0.8	-3.0%	10.5	0.6	-0.1	-1.8
Cc1nn(Cc2ccccc2)c(Cl)c1C(=O)OC1CCOC1=O (stereo not drawn)	-19.4%	?	3.4%	26.5	1.1	5.5	1.0
CSc1nnc(NC(=O)C23CC4CC(CC(C4)C2)C3)s1	-0.5%	1.9	12.0%	-5.5	0.7	-2.4	0.9
CCn1c(SCC(=O)NCC2CCCO2)nc2cc(S(=O)(=O)N3CCCCC3)ccc21 (stereo not drawn)	1.3%	0.3	-0.2%	2.5	4.7	-2.6	-0.7
Cc1sc(Cc2nc(O)cs2)nc1-c1ccccc1	31.6µM*	-5.3	2.7%	-2.2	-1.0	nt	0.8
COC(=O)C1=C(C)NC(=S)NC1/C=C/c1ccccc1 (stereo not drawn)	-0.7%	2.1	0.0%	7.9	-3.2	5.0	2.1
CN(CC(=O)Nc1ccc(OC(F)(F)F)cc1)C(=O)Cc1c(Cl)cccc1Cl	19.9%	0.8	2.1%	-9.7	-2.9	3.5	-3.8
Cc1cccc(N2CCN(C(=O)c3c(-c4ccccc4)noc3C)CC2)c1C	-7.1%	-6.5	2.1%	-0.4	-5.1	-2.1	0.3
COCCNC(=O)c1cc(S(=O)(=O)N(C)C2CCCCC2)ccc1Cl	nt	nt	1.2%	-1.8	0.7	1.7	2.0
CC(C)N(Cc1cnn(C)c1)Cc1nc(COc2ccccc2)no1	8.0%	5.6	-1.6%	-3.4	4.2	5.0	-4.3
COc1cc(C(=O)OCC(=O)NCC2CCCO2)cc(OC)c1OC (stereo not drawn)	nt	nt	1.1%	-3.7	5.4	nt	-0.8
C[C@H]1CN([C@@H](C)CO)C(=O)CCCn2cc(nn2)CO[C@@H]1CN(C)S(=O)(=O)c1ccc(C#N)cc1	nt	nt	-1.1%	-13.7	18.3	4.0	-9.4
C1=C(CCNCC2CCCCC2)CCCC1	?	2.4	5.5%	-26.6	-3.0	-11.3	-0.2
CCNC(=O)c1ccc(=O)n(Cc2ccc(Cl)cc2Cl)c1	nt	nt	-0.4%	-5.8	-1.0	-8.7	0.2
COc1ccc(OC)c(NC(=O)CC2SC(=Nc3ccc(F)cc3)N(CCC3=CCCCC3)C2=O)c1 (stereo not drawn)	5.7%	-55.5	8.7%	-13.5	-15.3	-15.3	0.7
CCN(C(=O)COC(=O)CCc1ccccc1OC)c1c(N)n(Cc2ccccc2)c(=O)[nH]c1=O	nt	11.8	0.0%	-10.2	7.8	7.4	-6.2
Cc1c(NC(=S)N/C(=N/S(=O)(=O)c2ccc(Cl)cc2)c2ccccc2)c(=O)n(-c2ccccc2)n1C	35.5µM*	nt	-1.4%	-1.4	6.1	4.6	2.0
Cc1cccc(Cc2c(C)nc3c(C(=O)NCc4ccco4)cnn3c2C)c1	?	-9.7	8.9%[38.3 µM]	-8.0	-13.3	8.4	-3.3

Screening data deposited in PubChem BioAssay by National Center for Advancing Translational Sciences (NCATS).
